Rango release inh: inhibitors of RanGTP-induced Rango-importin beta complex dissociation. O95149+P62826. Biochemical FRET Rango-importin beta, RanGTP-induced dissociation. AID 540253. Potency, µM (series often up to 46.1 µM), inactives show at the top dose activity change, negative = inhibition. hit rate 0.071% among 340,000; active means falling FRET ratio curve, often poorly fitted, with flat reads before Ran was added; inconclusive means other falling curves, or compound fluorescence or quenching; inactive means flat or rising ratio curve;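 further: potency means the concentration at half of the fitted maximal effect; % of control where 0% means no effect; nearly all actives have a fitted effect of over 45% in size; -100% = wells without RanGTP and RCC1; the record marks most hits as doubtful in a second field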
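Compounds sat 5 min at room temperature with 0.1 uM Rango biosensor plus 0.25 uM importin beta, then FRET pre-read. RanGTP-RCC1 (0.6 uM Ran, 2mM GTP, 0.2 uM RCC1) added for 45 min, and the CFP/YFP post-read measured blocked complex dissociation.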
miR-21 FLuc: raises the signal of a miR-21 reporter; 340,000 tested, under 10 active; Potency, µM (highest dose often 38.3 µM), inactives show top-dose reporter change, positive = more light; HeLa miR-21 FLuc reporter, luciferase, 48 h; AID 2288; active = well fitted rising curve with a large enough effect; inconclusive = small, poorly fitted or top-dose-only effect; inactive = no such curve, though single readings can be large or run the other way;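 further: % of control where 0% means no effect; miR-21 action dims this reporter so a rising signal means less miR-21 action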
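HeLa cells stably expressing CMV-driven firefly luciferase with a downstream miR-21 binding sequence, endogenously expressing miR-21, were treated with titrations (up to about 40uM final) for 48 hours at 37 degree Celsius. Luciferase luminescence was read after lysis.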
GLA inh pH 4.5: blocks human alpha-galactosidase A at pH 4.5; P06280; purified enzyme, 4-MU-alpha-Gal fluorescence, pH 4.5; activity change, negative = inhibition, % at 105 µM; 230,000 tested, under 10 active; AID 1467; inconclusive = small, poorly fitted or top-dose-only inhibition, or a rising curve; inactive = flat fitted curve, though single readings scatter; no compound was filed as active;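 further: 0% = full activity with enzyme and -100% = basal without enzyme; dose as in the result columns while the protocol names 77 µM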
Rango complex inh: inhibitors of Rango-importin beta complex formation | Q14974 | Potency, µM (titrated, usually from 92.2 µM), for the others: at the highest dose inhibition of complex formation | Rango CFP/YFP FRET sensor + importin beta, 45 min | hit rate 0.031% among 340,000; active = rising FRET ratio curve, often small or poorly fitted; inconclusive = mostly compound fluorescence or quenching in the first reads; inactive = flat curves in all reads;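 further: potency means the concentration at half of the fitted maximal effect; 0% = DMSO wells and 100% = buffer wells lacking importin beta; nearly all actives have a fitted effect of over 15% in size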
Target sequence (Q14974 whole entry, looked up): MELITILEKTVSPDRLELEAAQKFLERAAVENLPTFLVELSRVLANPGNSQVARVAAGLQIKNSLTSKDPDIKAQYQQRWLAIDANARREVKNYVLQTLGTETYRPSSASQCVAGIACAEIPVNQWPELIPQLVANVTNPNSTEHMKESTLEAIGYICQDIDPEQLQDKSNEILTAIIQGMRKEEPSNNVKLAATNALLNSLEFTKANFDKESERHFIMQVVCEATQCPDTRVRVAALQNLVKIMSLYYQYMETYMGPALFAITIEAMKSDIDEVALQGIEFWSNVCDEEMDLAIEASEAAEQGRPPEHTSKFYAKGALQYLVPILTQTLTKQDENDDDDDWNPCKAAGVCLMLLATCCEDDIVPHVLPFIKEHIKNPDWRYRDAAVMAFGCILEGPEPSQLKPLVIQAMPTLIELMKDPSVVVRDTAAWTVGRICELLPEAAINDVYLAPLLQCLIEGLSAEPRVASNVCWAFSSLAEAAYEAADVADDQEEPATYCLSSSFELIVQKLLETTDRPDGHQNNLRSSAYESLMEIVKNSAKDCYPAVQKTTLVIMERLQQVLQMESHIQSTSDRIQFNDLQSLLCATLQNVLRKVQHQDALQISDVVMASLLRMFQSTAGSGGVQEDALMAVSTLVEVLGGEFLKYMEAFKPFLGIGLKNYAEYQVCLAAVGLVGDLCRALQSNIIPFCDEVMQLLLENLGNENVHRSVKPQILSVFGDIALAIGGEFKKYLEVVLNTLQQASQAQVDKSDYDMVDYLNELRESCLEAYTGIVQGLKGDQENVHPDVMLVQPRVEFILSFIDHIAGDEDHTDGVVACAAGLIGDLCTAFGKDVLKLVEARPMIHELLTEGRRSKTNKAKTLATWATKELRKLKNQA
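FRET biosensor (snurportin 1 IBB flanked by EYFP and cerulean), 50 nM, with compound 5 min, then 0.125 microM importin beta in PBS, 1 mM DTT, 0.02% Tween-20, 0.1% BSA. CFP/YFP ratio read after 45 min at room temperature; pre-read flags interference.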
The depositor's hits bear a star; ? = inconclusive; · = no result given. Not all compounds are listed; count on the stated rates, not on these rows.

# | Rango release inh | miR-21 FLuc | GLA inh pH 4.5 | Rango complex inh | molecule
1 | 6% | -21% | -25 | -0.2% | O=C(Nc1cccnc1)c1ccc(-c2cc(Cl)ccc2Cl)o1
2 | 14% | -20% | 3 | -1.0% | O=C(Nc1ccccc1)C(=O)Nc1cccnc1
3 | -8% | 0% | 2 | 6.5% | C(=C\c1ccccc1)/CN1CCN(Cc2nc(Cc3ccccc3)no2)CC1
4 | · | -3% | -2 | · | Cc1ccc2[nH]c3c(c2c1)CN(C(=O)CN1CCN(c2ccccc2)CC1)CC3
5 | -1% | 6% | 6 | 0.0% | Cc1nn(-c2ccccc2)c(Oc2ccccc2)c1C=O
6 | -2% | -7% | 1 | -1.9% | COc1ccc(CCN(Cc2ccc(C(C)C)cc2)S(=O)(=O)c2ccc(S(=O)(=O)N(C)C)cc2)cc1OC
7 | -5% | 1% | · | -0.1% | C=CCN1C(=O)c2ccc(C(=O)N(C)CC(=O)Nc3ccccc3C(F)(F)F)cc2C1=O
8 | -6% | -5% | · | 9.7% | Cc1nn(CCC(=O)NCCc2ccccc2Cl)c(=O)c2nn(-c3ccccc3)c(C)c12
9 | -14% | -11% | -5 | 0.7% | O=C(CN(C(=O)CNS(=O)(=O)c1ccccc1)c1ccc2c(c1)OCCO2)NC1CCCCC1
10 | 0% | -5% | -4 | 0.1% | CN1CCC(NC(=O)c2ccncc2)CC1
11 | 8% | -6% | -5 | -3.8% | COc1nc(C)nc(C)c1Oc1ccc(Cl)cc1Cl
12 | -10% | -1% | 3 | -2.3% | CCOC(=O)Cn1c(=NC(=O)CSC(C)=O)sc2ccccc21
13 | 1% | 18% | -5 | -1.7% | COC(=O)Nc1ccc(S(=O)(=O)N2CCCc3cccc(O)c32)cc1
14 | 0% | -1% | -4 | 0.9% | COC(=O)c1c(C)cc(C)c2c1CC(C)(C)C2=O
15 | 16% | 1% | -5 | 3.0% | Cn1c(CSCc2ccc(Cl)c(Cl)c2)n[nH]c1=S
16 | 4% | -5% | 2 | ? | CCOC(=O)CC(NS(=O)(=O)Cc1ccccc1)c1ccc(C)cc1 (configuration not stated)
17 | 7% | -2% | 6 | -3.4% | Cc1csc(NC(=O)CSc2ccc3nnc(-c4ccncc4)n3n2)n1
18 | -16% | -49% | · | -1.1% | O=C(Nc1nnc(-c2ccccc2F)s1)c1ccccc1F
19 | -8% | -5% | · | -1.9% | COc1cc(CN2CCCC(C(=O)Nc3ccccc3Oc3cccnc3)C2)ccc1F (configuration not stated)
20 | 9% | -36% | 0 | 1.2% | Nc1ccc(C(=O)OCc2nc3c(ccc4ccccc43)[nH]2)cc1
21 | 3% | -14% | · | -0.1% | O=C(NCCCc1ccccc1)[C@@H]1Cc2ccccc2CN1
22 | 1% | -7% | -3 | 9.9% | COc1ccc2c(c1)C=C(CN1CCC(CO)(CCc3ccccc3)CC1)CO2
23 | -19% | -56% | 6 | -1.1% | CCC(C)NC(=O)CSc1ccc(Cl)cc1 (configuration not stated)
24 | 0% | · | · | -0.9% | COCCNC(=O)c1c(CS(=O)(=O)c2ccccc2)noc1C(=O)NCc1ccccc1
25 | 35% | 1% | · | -3.5% | CCc1nnc(SCC(=O)N2CCCC(N3CCN(c4ccccc4C)CC3)C2)o1 (configuration not stated)
26 | -16% | -5% | 2 | 2.3% | COc1ccc2c(c1)NC(c1cc(Cl)cc(Cl)c1O)c1cccn1-2 (configuration not stated)
27 | 1% | -20% | · | 0.9% | COc1cccc(C(=O)NCc2ccc3c(c2)OCO3)c1OC
28 | 4% | 6% | · | 0.3% | CC(=O)Nc1ccc(S(=O)(=O)Nc2ccc(Nc3ccccc3)cc2)cc1
29 | -4% | 6% | 3 | -0.7% | Cc1ccc(Cl)cc1N(CC(=O)Nc1cccc(N(C)S(C)(=O)=O)c1)S(C)(=O)=O
30 | 0% | 6% | -3 | 1.2% | Cc1c(Br)c(O)c(Br)c2sc(=O)oc12
31 | 9% | -9% | 4 | 0.4% | CC(C)(CN1CCCCC1)NS(=O)(=O)c1ccc(Cl)cc1
32 | -12% | -1% | · | -1.4% | Cc1ccc(C)c(C(=O)COC(=O)CNS(=O)(=O)c2ccccc2)c1
33 | 15% | 0% | 1 | 0.3% | COc1ccc(-c2nn(-c3ccccc3)cc2/C=C\C(=O)Nc2ccc(C(=O)O)cc2)cc1
34 | 5% | 3% | -29 | 6.2% | FC(F)(F)c1ccc(/C=N/NC(=S)NC2CCCCC2)cc1
35 | -1% | -8% | -1 | 0.0% | Cc1noc(C)c1CC(=O)N1CCCC(C(=O)c2ccc(C(C)(C)C)cc2)C1 (configuration not stated)
36 | 5% | 1% | -4 | 0.6% | O=C(COc1nc2ccccc2nc1N1CCOCC1)Nc1cccc(S(=O)(=O)N2CCCCC2)c1
37 | -12% | · | · | -0.2% | COC(=O)C1CC2=C(CCCC2=O)N(Cc2ccccc2)C1=O (configuration not stated)
38 | -8% | 1% | 1 | 0.1% | Cc1c(C(=O)C(=O)NCc2ccco2)c2ccccc2n1C
39 | -8% | -1% | · | 1.5% | Cc1ccc(OCC(=O)N/N=C/c2cccnc2)cc1
40 | 7% | -4% | · | -1.3% | COc1ccc(NC(=O)c2cn(C)c(=O)c3cc(OC)c(OC)cc23)c(OC)c1
41 | -14% | 0% | 1 | -0.2% | CSc1ccccc1C(=O)N1CCN(c2ncccn2)CC1
42 | -12% | -4% | · | -0.8% | Oc1ccc(Cl)cc1CNc1cnc2ccccc2c1
43 | 0% | 9% | · | 0.5% | COc1cc(CN2CCN(Cc3ccc(C(F)(F)F)cc3)CC2)cc(OC)c1OC
44 | 16% | 3% | -4 | 0.7% | Cc1ccc(NC(=O)OCC(F)(F)C(F)F)cc1NC(=O)OCC(F)(F)C(F)F
45 | -8% | -9% | 10 | -1.4% | Clc1ccccc1N1CCN(c2ncnc3nc[nH]c23)CC1
46 | 17% | -3% | 6 | -1.0% | O=C(O)c1cc(-c2ccccc2)n(-c2ccccc2)n1
47 | -1% | · | · | 2.9% | Cc1ccc(S(=O)(=O)N2CCOCC2)cc1C(=O)OCC(=O)NCc1ccc2c(c1)OCO2
48 | -8% | 0% | · | 0.8% | COc1cc(/C=C/C(=O)N2CCc3ccccc3C2)cc(OC)c1OC
49 | -16% | 1% | · | 4.0% | CNC(=O)CSc1nc2ccccc2c(=O)n1CCc1ccccc1
50 | -1% | 5% | 4 | 5.7% | CC(C)CNC(=S)NC1CC2CCCC(C1)N2C1CCCCC1 (configuration not stated)
51 | 3% | · | · | -0.6% | O=C1CCC(c2ccccc2)N1c1ccccc1 (configuration not stated)
52 | -7% | -8% | -8 | 3.9% | CCOc1ccccc1NC(=O)C(OC(=O)c1ccccc1NS(=O)(=O)c1cccs1)c1ccccc1 (configuration not stated)
53 | -9% | · | · | 4.0% | Cc1cc(C(=O)Nc2ccon2)ccc1[N+](=O)[O-]
54 | 2% | -3% | · | -1.3% | CCC(C(=O)NCCN1CCOCC1)n1nc(C)n2c(cc3sccc32)c1=O (configuration not stated)
55 | -18% | · | · | 1.3% | O=C(CC(=O)c1cccs1)c1ccncc1
56 | 14% | -2% | 1 | -1.6% | O=S(=O)(c1ccccc1)c1cnn2c(C(F)(F)F)cc(-c3ccccc3)nc12
57 | -4% | · | · | -1.3% | C=CC[C@H](CC(=O)N(CCO)Cc1ccccc1)C(=O)N[C@@H](COC(=O)[C@H](CC=C)CC(=O)OC(C)(C)C)Cc1c[nH]c2ccccc12
58 | 6% | -1% | 2 | -1.0% | O=C(c1cccs1)C1CCCN(Cc2nc(Cc3ccccc3F)no2)C1 (configuration not stated)
59 | 4% | -12% | 1 | 5.8% | CCN(CC)C(=O)CNc1ccc(C(F)(F)F)cc1[N+](=O)[O-]
60 | -13% | -62% | 2 | -4.0% | Cc1ccsc1C(=O)OCC(=O)NCCC1=CCCCC1

(list continues)
# | Rango release inh | miR-21 FLuc | GLA inh pH 4.5 | Rango complex inh | molecule
61 | -12% | -7% | 9 | ? | Cc1ccc2cc(C#N)c(NCCNC(=O)C3CCC3)nc2c1C
62 | -11% | -4% | -7 | -0.1% | COCCCn1c(=O)/c(=C\c2ccccc2OC(F)F)s/c1=C(/C#N)C(=O)N1CCOCC1
63 | 9% | 1% | -9 | 1.4% | Cc1c(C#N)c2ccccc2n1CC(=O)N1CCc2ccccc2C1
64 | 19% | 2% | · | -0.2% | O=C(COc1ccc2ccc(=O)oc2c1)NCCCN1CCCC1=O
65 | -9% | -5% | -1 | 3.8% | CCCCn1c(SCC(=O)N2CCOCC2)nnc1-c1cccs1
66 | 0% | -14% | -6 | 0.0% | O=c1[nH]c(SCc2cccc(F)c2)nc2c1CCCC2
67 | 10% | -8% | 4 | -2.2% | O=C(CCN1C(=O)/C(=C\c2cccs2)SC1=S)Nc1nccs1
68 | 0% | · | · | -0.1% | C[C@@]12C(=O)N(Cc3ccco3)CC(=O)N1[C@H]1c3ccccc3OC[C@@H]1[C@@H]2c1ccccc1
69 | -21% | -1% | 0 | -1.2% | CCOC(=O)N1CCC(N2C(=O)c3ccccc3C2Nc2ccc(S(=O)(=O)N(CC)CC)cc2)CC1 (configuration not stated)
70 | 11% | -2% | 7 | ? | CC1(C)CN(c2cccc(-c3ccnc4ncnn34)c2)C1=O
71 | 0% | 15% | · | 0.2% | Cc1cccc(NC(=O)C2CCCN(C(=O)Nc3ccc(F)cc3)C2)c1 (configuration not stated)
72 | 5% | 6% | 11 | 1.0% | CCC1CCCCN1Cc1ccc(OC)c(C)c1 (configuration not stated)
73 | -2% | · | · | 0.0% | CCN(C(=O)CN1C(=O)NC(c2ccccc2)(c2ccc(C)c(C)c2)C1=O)C1CCCCC1 (configuration not stated)
74 | -7% | -2% | -3 | 6.5% | Cc1ccc(-n2cnc3c(sc4nc(N5CCOCC5)c5c(c43)CCCC5)c2=O)cc1
75 | 17% | -7% | -7 | -3.5% | COC(=O)C1(C)NC(c2cccs2)C2C(=O)N(c3ccccc3F)C(=O)C21 (configuration not stated)

Molecules shown so far containing a thiophene ring, fused or not, in the order listed:
# | Rango release inh | miR-21 FLuc | GLA inh pH 4.5 | Rango complex inh | molecule
52 | -7% | -8% | -8 | 3.9% | CCOc1ccccc1NC(=O)C(OC(=O)c1ccccc1NS(=O)(=O)c1cccs1)c1ccccc1 (configuration not stated)
54 | 2% | -3% | · | -1.3% | CCC(C(=O)NCCN1CCOCC1)n1nc(C)n2c(cc3sccc32)c1=O (configuration not stated)
55 | -18% | · | · | 1.3% | O=C(CC(=O)c1cccs1)c1ccncc1
58 | 6% | -1% | 2 | -1.0% | O=C(c1cccs1)C1CCCN(Cc2nc(Cc3ccccc3F)no2)C1 (configuration not stated)
60 | -13% | -62% | 2 | -4.0% | Cc1ccsc1C(=O)OCC(=O)NCCC1=CCCCC1
65 | -9% | -5% | -1 | 3.8% | CCCCn1c(SCC(=O)N2CCOCC2)nnc1-c1cccs1
67 | 10% | -8% | 4 | -2.2% | O=C(CCN1C(=O)/C(=C\c2cccs2)SC1=S)Nc1nccs1
74 | -7% | -2% | -3 | 6.5% | Cc1ccc(-n2cnc3c(sc4nc(N5CCOCC5)c5c(c43)CCCC5)c2=O)cc1
75 | 17% | -7% | -7 | -3.5% | COC(=O)C1(C)NC(c2cccs2)C2C(=O)N(c3ccccc3F)C(=O)C21 (configuration not stated)

Reformatted: results already given.
no.	Compound	Rango release inh	miR-21 FLuc	GLA inh pH 4.5	Rango complex inh
63	Cc1c(C#N)c2ccccc2n1CC(=O)N1CCc2ccccc2C1	9%	1%	-9	1.4%
68	C[C@@]12C(=O)N(Cc3ccco3)CC(=O)N1[C@H]1c3ccccc3OC[C@@H]1[C@@H]2c1ccccc1	0%	·	·	-0.1%

Screen by screen, from the results shown:
Rango release inh, entries 69–75 → -21%, 11%, 0%, 5%, -2%, -7%, 17%
GLA inh pH 4.5, entries 69–75 → 0, 7, ·, 11, ·, -3, -7
Rango complex inh, entries 69–75 → -1.2%, ?, 0.2%, 1.0%, 0.0%, 6.5%, -3.5%

Compound activity: PubChem, National Center for Advancing Translational Sciences (NCATS)
